# E coli WT exp – blocks growth of wild type E. coli BW25113; actives 0.15% (n = 98,000); growth inhibition, % at 100 µM; OD600 absorbance;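 active = growth inhibition above about 50% at one test dose, limit read from the data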;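 note: growth measured after 20 h incubation at 37 °C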
# CD11b adhes enh – increases human CD11b/CD18 adhesion to fibrinogen. actives 0.07% (n = 93,000). activation, % at 10 µM. K562 CD11b/CD18 adhesion to fibrinogen, ATPlite luminescence. P05107+P11215;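 active = 10 µM primary screen giving 50% or more activity, confirmed by 40% or more on retest at that dose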; note: strong numbers were not always called active; reference of the scale not given here
# Target sequence (P05107 whole entry, looked up, other chains not shown): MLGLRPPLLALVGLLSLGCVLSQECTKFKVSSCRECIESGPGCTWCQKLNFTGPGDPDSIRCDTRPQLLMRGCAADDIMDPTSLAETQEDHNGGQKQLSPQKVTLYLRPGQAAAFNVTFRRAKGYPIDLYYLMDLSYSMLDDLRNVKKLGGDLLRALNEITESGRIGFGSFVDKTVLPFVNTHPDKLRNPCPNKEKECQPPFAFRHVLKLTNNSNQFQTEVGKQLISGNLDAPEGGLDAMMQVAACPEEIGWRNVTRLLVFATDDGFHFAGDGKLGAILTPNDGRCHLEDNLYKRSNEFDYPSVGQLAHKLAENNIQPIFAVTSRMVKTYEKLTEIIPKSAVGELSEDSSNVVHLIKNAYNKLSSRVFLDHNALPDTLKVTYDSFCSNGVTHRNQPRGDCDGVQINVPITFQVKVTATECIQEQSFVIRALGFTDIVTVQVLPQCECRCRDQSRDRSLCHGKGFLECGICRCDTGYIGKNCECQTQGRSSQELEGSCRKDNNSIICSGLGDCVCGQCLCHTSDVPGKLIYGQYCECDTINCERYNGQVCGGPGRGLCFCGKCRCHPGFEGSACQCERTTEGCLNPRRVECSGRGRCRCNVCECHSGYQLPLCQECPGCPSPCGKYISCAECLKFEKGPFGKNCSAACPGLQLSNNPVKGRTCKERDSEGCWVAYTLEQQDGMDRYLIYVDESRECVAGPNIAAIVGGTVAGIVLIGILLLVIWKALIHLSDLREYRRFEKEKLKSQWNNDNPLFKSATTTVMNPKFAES
# MT1-MMP txn act – MT1-MMP promoter transcription activation. actives 0.16% (n = 86,000). HT1080 MT1-MMP promoter luciferase reporter, luminescence, overnight; hits give high values. activation factor at 10 µM;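 active = activation factor of at least 2 for MT1-MMP transcription at 10 µM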
# ERa SRC1 inh – blocks coactivator binding to human estrogen receptor alpha | actives 1.7% (n = 86,000) | inhibition, % at 25.6 µM | TR-FRET ER-alpha LBD / SRC-1 peptide, estradiol-bound; in the data active = inhibition above about 50%;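 note: 0% = receptor plus peptide control and 100% = peptide only without receptor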
# PLAP activator – human PLAP activation. activation fold at 20 µM. AID 696. P05187. actives 1.2% (n = 96,000). purified PLAP enzyme, luminescent substrate read-out; hits give high values; in the data active = activation fold above about 2
# ERb SRC1 inh – ER-beta (human) coactivator binding inhibition. Q92731. TR-FRET ER-beta LBD / SRC1-Cy5 peptide binding; receptor agonist-loaded with 1 µM estradiol. inhibition, % at 25.6 µM. actives 1.3% (n = 86,000). AID 633;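 active = compounds whose percent inhibition of the receptor-coactivator binding signal exceeds about 50% in the single-dose screen, limit read from the data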;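 note: 0% = receptor plus peptide wells without compound and 100% = peptide-only wells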
# Mac1 fbg inh – CD11b/CD18-fibrinogen binding inhibition | inhibition, % at 10 µM | P05107+P11215 | actives 0.54% (n = 93,000) | AID 1497 | K562 CD11b/CD18 adhesion to fibrinogen, ATPlite luminescence; Mn2+ added to activate the integrin;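 active = primary inhibition of 50% or more at 10 µM, then 40% or more on retest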; note: some results filed as inactive read as strong as hits
# ERa coact pot – enhances coactivator binding to human estrogen receptor alpha; P03372; TR-FRET ERalpha-LBD/SRC-Cy5 coactivator binding, 2 h; 100 = basal binding, no effect; coactivator binding (% of control), % at 25.6 µM; actives 1.3% (n = 86,000); in the data active = activity above about 200%;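 note: binding measured in presence of low estradiol as agonist stimulus; 0% = peptide alone without receptor and 100% = receptor with peptide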
# Numbers without * were called inactive; · = not tested or not shown; [ ] = dose if it differs, or a comment. An excerpt; rates above refer to the full screens.
SMILES,E coli WT exp,CD11b adhes enh,MT1-MMP txn act,ERa SRC1 inh,PLAP activator,ERb SRC1 inh,Mac1 fbg inh,ERa coact pot
CCOc1cc([C@H]2[C@@H]3CCCC[C@]3(O)CCN2CC(=O)NCc2ccco2)ccc1O,5,-2,1.2,3[fluorescence artefact?],1.5,25,-17,126
CCCOc1ccc(C(=O)Nc2cc(-c3nn4c(C)nnc4s3)ccc2C)cc1,-5,9,1,58*[fluorescence artefact?],1.4,21,-13,145
Oc1ccccc1C1=Nc2ccccc2N=C(c2cccs2)C1,-7,·,·,·,0.9,·,·,·
COc1ccccc1C(=O)Nc1ccc2c(c1)OCCO2,13,·,1.6,-7,0.9,-2,·,111
O=C(COC(=O)COc1ccc(Nc2ccccc2)cc1)NCc1ccco1,-5,1,1.4,30[fluorescence artefact?],1,52*[fluorescence artefact?],3,69[fluorescence artefact?]
CCc1nc(-c2cc3ccc(C)cc3[nH]c2=O)no1,3,5,1.2,3,0.9,-4,-6,102
COc1cccc(N2CCN(C3OC(=O)c4ccccc43)CC2)c1 (stereo unspecified),4,0,1,3[fluorescence artefact?],1.3,-3,-16,99
COc1ccc(Br)cc1/C=N/n1c(C)nnc1C,·,·,1.2,-6,·,-4,·,99
COc1c(C)cccc1C(=O)Nc1cc(-c2nn3c(C)nnc3s2)ccc1C,·,·,1,·,·,·,·,·
CCOC(=O)c1c(CC(C)C)csc1NC=O,9,9,1.1,13[fluorescence artefact?],1,0,9,93
Cc1ccc(C(=O)NC2CCCCCC2)cc1N1CCCC1=O,-4,-4,1.4,11,1.1,7[fluorescence artefact?],5,95
COCCCN1C(=O)c2[nH]nc(-c3ccccc3O)c2C1c1cccc(Cl)c1 (stereo unspecified),-2,0,0.7,3,1.5,6,2,100
Cc1[nH]nc2cn[nH]c12,-3,-2,1.2,-5,1.2,-9,63,122
Cc1nc(N)nc(-c2ccccc2O)n1,8,0,1.2,1,0.9,-14,-8,101
O=C1C2ON(c3ccccc3)C(c3ccccn3)C2C(=O)N1c1ccc(Br)cc1 (stereo unspecified),-6,-2,1.1,0,1.5,1,0,108
COc1ccc(C(=O)NCCCN2CCOCC2)cc1OC,0,·,1.1,-5,1.1,-7,·,91
Nc1nnc(SCC(=O)c2ccccc2)s1,9,1,1.2,-2,0.9,-3,-9,103
OC(CN1CCOCC1)C12CC3CC(CC(C3)C1)C2 (stereo unspecified),-1,-1,1.5,-8,1.4,-6,1,118
COC(=O)c1cc(Cl)c(NC(=O)/C=C/c2ccc(Cl)cc2)cc1OC,-10,2,·,·,0.9,·,-39,·
Cc1cc(S(=O)(=O)NC2CCCC2)ccc1F,1,-2,1.1,2,0.8,-3,16,106
CN(C)S(=O)(=O)c1ccc(S(=O)(=O)N(Cc2ccco2)Cc2ccccc2Cl)cc1,-10,10,1.1,-1,0.8,6,40,112
CCCc1cc(=O)oc2cc(OCC(=O)OC)cc(OCC(=O)OC)c12,1,2,1.1,-4[fluorescence artefact?],0.9,22,-7,622*[fluorescence artefact?]
C=C(C)COc1ccc(-c2nc(N)ncc2Oc2ccc(OC)cc2)c(O)c1,-13,-4,1.2,49[fluorescence artefact?],0.9,36[fluorescence artefact?],-8,117
CCC(=O)N(CCC(c1ccccc1)c1ccco1)Cc1cccs1 (stereo unspecified),3,·,1.1,0,1.2,-1,·,87
NS(=O)(=O)c1cccnc1Nc1cccc(Cl)c1Cl,-9,0,·,·,1.2,·,-6,·
COc1ccc(-c2nnc(SCc3nnc(-c4ccc(Cl)cc4)o3)n2-c2ccccc2)cc1,-11,-9,1.3,5[fluorescence artefact?],1.3,31[fluorescence artefact?],94,84
CN(C)CCNC(=O)CCCNC(=O)Cn1cnc2sc3c(c2c1=O)CCCC3,8,-2,1.1,1,0.9,-7,4,95
COc1ccc(OCC(=O)Nc2cc(-c3nn4c(C)nnc4s3)ccc2C)cc1,1,15,1.1,20[fluorescence artefact?],1.1,12[fluorescence artefact?],12,276*[fluorescence artefact?]
O=C(COc1ccc(-c2ccccc2)cc1)N1CCN(S(=O)(=O)Cc2ccccc2)CC1,-7,0,1.2,9,1.3,4,-51,102
CCCCCSc1nc(O)cc(=O)[nH]1,-8,6,1.1,-5,1.3,-5,-30,94
COc1ccc(NC(=O)C2(c3ccc(NC(=O)c4ccc(OC)c(OC)c4)cc3)CCCC2)cc1,-8,·,·,·,0.8,·,·,·
CCC(=O)Nc1cccc(NC(=O)COc2ccc(OC)cc2)c1,7,0,1.1,-1,0.8,-2,0,113
CCCCSc1nsc(NC(C)=O)n1,1,1,1.1,0,1.1,1,0,101
C=CCNC(=O)N[C@@H](CCSC)C(=O)OC,-1,-3,1.1,-9,0.9,-1,-10,98
CCOC(=O)c1cc(Br)c(=O)n2ccccc12,-3,·,·,·,0.8,·,·,·
Cc1nc2cc(NC(=O)NCc3ccc4c(c3)OCO4)ccc2o1,6,2,0.9,-2,0.9,3,-6,110
Cc1ccc(C(=O)CSc2nnc(-c3ccccc3N)n2C)cc1,6,-3,1.4,8,1.1,-8,5,101[fluorescence artefact?]
COc1ccccc1C1/C(=C(/O)c2ccccc2)C(=O)C(=O)N1CC(C)O (stereo unspecified),0,-1,1.1,-3,1.1,-1,-8,100
COc1cccc(NC(=O)Nc2c(C)n(C)n(-c3ccccc3)c2=O)c1,7,-2,1.1,-2,1,-1,-13,111
COc1ccccc1N1CC(O)=C(c2nc3ccccc3c(=O)[nH]2)C1=N,-3,·,1.2,1,1.9,3,·,95

# Single records, as listed above. Screens in order: E coli WT exp	CD11b adhes enh	MT1-MMP txn act	ERa SRC1 inh	PLAP activator	ERb SRC1 inh	Mac1 fbg inh	ERa coact pot
# Shown for COc1ccccc1C(=O)Nc1ccc2c(c1)OCCO2 → 13	·	1.6	-7	0.9	-2	·	111
# Shown for COc1ccccc1N1CC(O)=C(c2nc3ccccc3c(=O)[nH]2)C1=N → -3	·	1.2	1	1.9	3	·	95
# Shown for O=C1C2ON(c3ccccc3)C(c3ccccn3)C2C(=O)N1c1ccc(Br)cc1 (stereo unspecified) → -6	-2	1.1	0	1.5	1	0	108

# Further compounds follow:
SMILES,E coli WT exp,CD11b adhes enh,MT1-MMP txn act,ERa SRC1 inh,PLAP activator,ERb SRC1 inh,Mac1 fbg inh,ERa coact pot
CCSCc1nnc(SCC(=O)c2ccc(OC)cc2)n1C,5,0,1.2,26,1.1,-12,-16,81
Cc1nc(N2CCN(C(=O)c3ccco3)CC2)c2c3c(sc2n1)CCCC3,·,·,1.2,7,·,12,·,88
CC1CCc2cc(F)ccc2N1C(=O)CSc1nnc2c(n1)[nH]c1ccc(F)cc12 (stereo unspecified),3,·,·,·,0.8,·,·,·
COc1ccc(-c2nc(C#N)c(N3CCc4ccccc4C3)o2)cc1OC,-8,·,1.1,7,1.1,2[fluorescence artefact?],·,98[fluorescence artefact?]
COc1nc(N(c2ccccc2)c2ccccc2)nc(-n2ccnc2)n1,25,0,1.3,2,1,-4,12,90
COC(=O)c1ccc(C2NC(=S)N(c3ccccc3)C(C)=C2C(=O)Nc2ccccc2OC)cc1 (stereo unspecified),-5,-4,·,·,1.7,·,-3,·
CCCn1c(NC(=O)c2ccc(Cl)c(S(=O)(=O)N3CCCC3)c2)nc2ccccc21,-20,-3,0.9,12[fluorescence artefact?],1.5,5[fluorescence artefact?],8,178
CCOc1cc(S(=O)(=O)NCCN2CCOCC2)c(C)cc1C,8,0,1,-3[fluorescence artefact?],1.6,-3,6,124[fluorescence artefact?]
CC1(C)CC(=O)C(C=Nc2ccc3cn[nH]c3c2)=C(O)C1,0,0,1.3,-7[fluorescence artefact?],1.2,-1[fluorescence artefact?],-3,128
CCc1nc(NCCCCCO)c2nnn(Cc3ccccc3F)c2n1,4,4,1.2,2[fluorescence artefact?],1.7,47,5,109
CC(=O)Cc1nsc(NC(=O)c2ccc(Br)o2)n1,·,·,1.3,0,·,-4,·,101
CC(C)Cc1nc2n[nH]c(N)c2c2c1CCCC2,-9,-2,1.1,-2,1.4,-6,-22,101
CC(=O)Cc1nsc(NC(=O)c2ccc(-c3ccc(Cl)cc3Cl)o2)n1,-2,-4,1.1,3,1,-2,31,98
O=C1CNCc2[nH]c3ccccc3c2N1c1ccccc1,8,-5,1.1,-9,0.8,-4,-11,88
N#CC1(c2ccc(NC(=O)c3ccccc3)cc2)CCCC1,0,-2,·,·,1.2,·,2,·
CC(=O)Nc1nc(C)c(Oc2ccccc2)c(=O)[nH]1,-1,2,1.2,8[fluorescence artefact?],1.2,8[fluorescence artefact?],-9,90
CC1(C)NC(=O)N(CNc2cc(Cl)ccc2Cl)C1=O,2,1,1.1,2,1,3[fluorescence artefact?],-47,88
C=CCn1c(CCNC(=O)c2cccs2)nnc1SCC(=O)Nc1cccc(Cl)c1C,-3,2,·,-1,0.8,-3,-24,91[fluorescence artefact?]
COCC(=O)Nc1sc2c(c1C(=O)OC)CCC(C)C2 (stereo unspecified),-6,2,1.1,-4,0.9,-3,-11,102
CC(C)c1nc2n[nH]c(N)c2c2c1CSC(C)(C)C2,-2,2,1.2,-3,1.7,2,2,97
Cn1c(=NC(=O)C2CCN(S(=O)(=O)c3cccs3)CC2)sc2ccccc21,3,0,1,25[fluorescence artefact?],0.9,24,3,145[fluorescence artefact?]
COc1cccc(CNC(=O)C2CCN(S(=O)(=O)c3ccc(F)cc3)CC2)c1,7,-3,1,·,0.9,·,4,·
Cc1c(C=O)c2ccccn2c1C(=O)c1ccccc1,7,-7,·,2,1,-2,-13,110
COC(=O)c1sc2nc3c(cc2c1N)COC(C)(C)C3,4,4,·,-2,0.9,-2,-6,85
COc1ccccc1NC(=O)NCCCN1CCN(c2cccc(Cl)c2)CC1,12,3,1.1,-3,1.5,-9,-3,98
Cc1nn2c(-c3ccccc3)ccnc2c1-c1ccccc1,-4,-3,·,·,0.8,·,14,·
Cc1ccc(CNCc2cc3c(C(C)(C)C)nn(-c4ccccc4)c3[nH]c2=O)cc1,1,4,1,5,2.1*,-3,35,106
CC(=O)NC(Cc1ccccc1)C(=O)NC1CCN(C(=O)c2cnccn2)CC1 (stereo unspecified),6,0,1.1,-6,1.1,4,-26,122
Cc1cc(C)n(-c2ccc(C(=O)NC3=NCCS3)cc2)n1,12,·,1.3,35,·,18,·,93
N#CC(c1ccccc1F)(c1ncc(C(F)(F)F)cc1Cl)N1CCOCC1 (stereo unspecified),-2,·,·,·,1.2,·,·,·
COc1ccccc1/C=C/C=N/n1c(COc2ccccc2)n[nH]c1=S,-10,0,·,·,1,·,-3,·
O=C(CCc1ccc(S(=O)(=O)NC2CCCCC2)cc1)NCc1ccccc1,4,2,·,·,1.1,·,3,·
CC(C)[C@H](NC(=O)CCn1nnc2ccccc2c1=O)C(=O)O,-2,0,0.9,-6,0.8,-2,-3,126
COC(=O)CSC1=C(C#N)C(c2ccc(C)cc2)C2=C(CCCC2=O)N1 (stereo unspecified),8,-5,1,-1,1,-8,-5,100[fluorescence artefact?]
CSc1nnc(Cn2c(=O)sc3ccccc32)n1-c1ccccc1,2,-5,1.1,-7,1.6,-2,4,119
CN(c1ccc(OCc2nnc(-c3ccccc3)o2)cc1)S(=O)(=O)c1ccccc1,-12,0,1,-12,0.8,-5[fluorescence artefact?],42,102
Cc1nc2cc(F)ccc2n1C1CCN(S(=O)(=O)c2ccccc2)CC1,-4,1,1,-8,1.1,-3[fluorescence artefact?],5,113
N#Cc1cnc(SCC(=O)Nc2ccccc2C(F)(F)F)nc1N,·,·,1.1,4,·,-2,·,84[fluorescence artefact?]
Clc1ccc(C2C3=C(Nc4ncnn42)c2ccccc2CC3)cc1 (stereo unspecified),-2,-3,1.1,11[fluorescence artefact?],1.5,7,-8,73
COC(=O)c1cc2ccsc2n1CC(=O)N(C)c1ccccc1,1,2,1,8,0.9,4,-21,92[fluorescence artefact?]
FC(F)(F)c1ccccc1C1C2=C(Nc3ncnn31)c1ccccc1CCC2 (stereo unspecified),-9,1,·,·,1,·,16,·
Cc1ccc(NC(=O)c2ccc(N/N=C/c3cccc(O)c3)c([N+](=O)[O-])c2)cc1,-13,·,·,·,0.8,·,·,·
Cc1ccc(OCC(=O)Nc2ccc(-c3nc4ncccc4o3)cc2)c(C)c1,4,51,1,51*[fluorescence artefact?],1.4,45[fluorescence artefact?],23,157[fluorescence artefact?]
